AID923: qHTS Assay for Allosteric/Competitive Inhibitors of Caspase-1: Spectroscopic Profiling in AFC Spectral Region | compound fluorescence, AFC spectral region (405/520 nm); almost no hit is shown here | Potency, µM (highest dose often 57.5 µM), for the others: top-dose fluorescence increase, most hits filed as activators | 1.1% of 75,000 active; active means well fitted activation curve with a large enough effect;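 further: 0% is about no effect; scaled to a free AFC standard on each plate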
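Compound autofluorescence profiled at 405 nm ex/520 nm em during kinetic caspase 1 run (50 nM enzyme, 5 uM Ac-WEHD-AFC, HEPES pH 7.5, 10 mM DTT). Titration up to 57 uM; baseline from regression intercept, normalized to AFC standard curve.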
* marks the source's active call; other numbers are inactive results; [ ] = remark or other dose. Potency means the concentration at half of the fitted maximal effect. Not all compounds are listed, so the mix of outcomes need not match the whole.

SMILES	AID923
CCCCCn1c(CN2CC(C)OC(C)C2)nc2c1c(=O)n(C)c(=O)n2C (stereo unspecified)	-1.5%
CCOC(=O)C1=C(C)NC(=O)NC1c1ccc(OCCO)c(OC)c1 (stereo unspecified)	-2.1%
Cc1c(C#N)sc2nc(-c3ccccc3)nc(N3CCCC3)c12	1.7%
CC(=O)OCC(OC(C)=O)C(OC(C)=O)C(OC(C)=O)C(OC(C)=O)C(COC(C)=O)OC(C)=O (stereo unspecified)	-2.7%
CC1(C)C2(Cl)C(Cl)C(Cl)C(Cl)(C(Cl)Cl)C1(Cl)C2Cl (stereo unspecified)	-4.4%
O=S(=O)(O)CCS	-0.8%
S=C(c1ccc(-c2cc(Cl)ccc2Cl)o1)N1CCOCC1	0.8%
Clc1ccc(C2[C@H]3CN(CC4CCCCC4)[C@H](c4ccccc4)C34CC2(c2cccnc2)C4)cn1 (stereo partly specified)	-3.1%
CCCN1C(=O)CC(c2ccco2)Sc2ccccc21 (stereo unspecified)	-1.7%
CC(C)=CCC/C(C)=C/COc1c2occc2cc2ccc(=O)oc12	1.8%
COc1cc(-c2coc3cc(O[C@H]4OC(CO)C(O)C(O)C4O)c(OC)c(O)c3c2=O)cc(O)c1OC (stereo partly specified)	-0.5%
CO/N=C(\C(=O)NC1C(=O)N2C(C(=O)OCOC(=O)C(C)(C)C)=C(/C=C\c3scnc3C)CSC12)c1csc(N)n1 (stereo unspecified)	-3.0%
Clc1cccc(Nc2ncnc3c2cnn3-c2ccccc2)c1	-3.2%
CCCCN(CC)CCNC(=O)c1cc2c(=O)n(C)c3ccccc3c2n1C	0.5%
OCc1ccccc1O	-0.6%
Cc1cccc(-c2cc(=O)c3cc(Br)ccc3o2)c1	0.9%
CCOC(=O)c1c(C)nc(-c2ccccc2)nc1NC(C)=O	8.2%
OCC1OC(n2cnc3c(Cl)nc(Cl)nc32)C(O)C1O (stereo unspecified)	-1.1%
c1ccc(C2[C@H]3CN(Cc4cccnc4)[C@H](c4ccccc4)C34CC2(c2cccnc2)C4)cc1 (stereo partly specified)	-0.1%
O=c1[nH]c(=O)n(C2CC(O)C(CO)O2)cc1F (stereo unspecified)	-1.8%
OC(c1cc(C(F)(F)F)nc2c(C(F)(F)F)cccc12)C1CCCCN1 (stereo unspecified)	0.0%
CC1(C)S[C@H]2[C@@H](NC(=O)C(N)c3ccccc3)C(=O)N2[C@H]1C(=O)O (stereo partly specified)	-0.4%
O=C(NC1CCCc2ccccc21)C1CCN(c2nnc(-n3cccc3)s2)CC1 (stereo unspecified)	2.0%
COC(=O)NC(c1cccc(F)c1)[C@@]1(C(=O)OC)CCCC1=O (stereo partly specified)	-0.2%[11.5 µM]
COc1ccc(-c2coc3ccc(OC4OC(COC(C)=O)C(OC(C)=O)C(OC(C)=O)C4OC(C)=O)c(OC(C)=O)c3c2=O)cc1 (stereo unspecified)	-0.1%
COc1cc(C)c(C(=O)Oc2cc(C)c(C(=O)O)c(O)c2C)c(OC)c1C	-0.2%
CC(C)(C#N)N([O-])C=C[N+](=O)C(C)(C)C#N	-0.3%
Cc1cc(/C=C/c2ccc3cc(N(C)C)ccc3[n+]2C)c(C)n1-c1ccccc1	7.1%
CCOC(=O)CSc1nc(N)c(C#N)c(-c2cccs2)c1C#N	0.7%
COC(=O)[C@@H]1C[C@@H]2CC[C@@H](O)C[C@@H]2N1Cc1ccc(N2CCOCC2)cc1	-0.3%
COc1cc2c(cc1OC)C(=O)OC2	-2.2%
COc1ccc(CNc2oc(COc3ccccc3)nc2C#N)cc1	-0.2%
CC(C)CC(NS(=O)(=O)c1ccc2c(c1)oc(=O)n2C)C(=O)N1CC=C(c2ccccc2)CC1 (stereo unspecified)	0.2%
CC(C)(C)C(=O)Nc1ccccc1C(=O)Nc1cccnc1	3.1%
NC1C(O)OC(CO)[C@@H](O)[C@@H]1O[C@H]1O[C@@H](C(=O)O)C(O)C(O)C1O (stereo partly specified)	-3.2%
CCCCN(CC)CCCNC(=O)c1cc2c(=O)n(C)c3ccccc3c2n1C	-0.4%
COc1cc2nc(N(C)CCCNC(=O)C3CCCO3)nc(N)c2cc1OC (stereo unspecified)	-0.3%
O=C(Nc1nccs1)c1cc(S(=O)(=O)N2CCCCC2)ccc1Cl	-1.8%
Nc1ncnc2c1ncn2C1OC(COP(=O)(O)O)C(O)C1O (stereo unspecified)	-0.2%
COC(=O)c1ccc2c(c1)N(Cc1ccccc1F)C(=O)c1ccccc1S2=O (stereo unspecified)	0.6%

Laid out differently: results already given
Molecule | AID923
CC(C)(C#N)N([O-])C=C[N+](=O)C(C)(C)C#N | -0.3%
Cc1cc(/C=C/c2ccc3cc(N(C)C)ccc3[n+]2C)c(C)n1-c1ccccc1 | 7.1%
CCOC(=O)CSc1nc(N)c(C#N)c(-c2cccs2)c1C#N | 0.7%
COC(=O)[C@@H]1C[C@@H]2CC[C@@H](O)C[C@@H]2N1Cc1ccc(N2CCOCC2)cc1 | -0.3%
COc1cc2c(cc1OC)C(=O)OC2 | -2.2%
COc1ccc(CNc2oc(COc3ccccc3)nc2C#N)cc1 | -0.2%
CC(C)CC(NS(=O)(=O)c1ccc2c(c1)oc(=O)n2C)C(=O)N1CC=C(c2ccccc2)CC1 (stereo unspecified) | 0.2%
CC(C)(C)C(=O)Nc1ccccc1C(=O)Nc1cccnc1 | 3.1%
NC1C(O)OC(CO)[C@@H](O)[C@@H]1O[C@H]1O[C@@H](C(=O)O)C(O)C(O)C1O (stereo partly specified) | -3.2%
CCCCN(CC)CCCNC(=O)c1cc2c(=O)n(C)c3ccccc3c2n1C | -0.4%
COc1cc2nc(N(C)CCCNC(=O)C3CCCO3)nc(N)c2cc1OC (stereo unspecified) | -0.3%
O=C(Nc1nccs1)c1cc(S(=O)(=O)N2CCCCC2)ccc1Cl | -1.8%
Nc1ncnc2c1ncn2C1OC(COP(=O)(O)O)C(O)C1O (stereo unspecified) | -0.2%
COC(=O)c1ccc2c(c1)N(Cc1ccccc1F)C(=O)c1ccccc1S2=O (stereo unspecified) | 0.6%

More compounds
SMILES	AID923
CCCCC(CC)CN1CN(CC(CC)CCCC)CC(C)(N)C1 (stereo unspecified)	-0.9%
O=C(O)C=C1C2CC3CC(C2)CC1C3	-1.9%
CC1=C(C(=O)OCc2ccccc2)C(c2ccccc2)NC(=O)N1CCCCCC(=O)O (stereo unspecified)	-4.6%
Nc1nc(Cl)c2ncn(C3OC(CO)C(O)C3O)c2n1 (stereo unspecified)	-0.7%
O=C(C(Cc1ccccc1)n1cccc1)N1CCN(Cc2ccccc2)CC1 (stereo unspecified)	-0.9%
CC(=O)OC1CCC2(C)C(=CC=C3C2CCC2(C)C3CCC2C(C)/C=C/C(C)C(C)C)C1(C)C (stereo unspecified)	-1.2%
O=C1C(Cl)=C(N2CCOCC2)C(=O)N1c1cccc(Cl)c1	2.6%
CN(C)CC[C@@H](c1ccc(Cl)cc1)c1ccccn1	0.7%
CC1=C(C(=O)OC(C)C)C(c2ccc(Br)s2)NC(=O)N1C (stereo unspecified)	1.9%
CC1(COc2ccc(C[C@H]3SC(=O)NC3=O)cc2)CCCCC1	-2.1%
CCOC(=O)c1ccc(NC(=O)CSc2nc3c(c(=O)n2CC)SC(C)C3)cc1 (stereo unspecified)	-3.7%
S=c1nc[nH]c2nc[nH]c12	0.0%
Nc1nc2c(nc(Sc3ccc(Cl)cc3)n2C2OC(CO)C(O)C2O)c(=O)[nH]1 (stereo unspecified)	-1.9%
O=c1cc[nH]c(=S)[nH]1	-0.1%
CCc1nc(SCC(=O)c2ccc(C)c(C)c2)n[nH]1	-0.9%
CCOC(=O)CCC(=O)N1CCNC(=O)C1	-4.1%
O=C(C(Cc1ccccc1)n1cccc1)N1CCCCCC1 (stereo unspecified)	0.1%
COC(=O)CSc1nnc2n(C3CCCCC3)c(=O)c3c4c(sc3n12)CCCC4	-1.1%
C=C(C)C1Cc2c(ccc(C(=O)O)c2O)O1 (stereo unspecified)	-2.2%
O=C1C=CC(=O)c2c(O)c(Cl)c(Cl)c(O)c21	-3.0%
CC1=C2C(O)C(=O)OC3CC4C(C)(C)C(=O)C=C[C@]4(C)C(CC1)[C@@]23C (stereo partly specified)	-1.5%
COc1ccc(CC(=O)c2ccc(O)cc2O)cc1	-2.5%
CC(C(=O)N1CC2(C)CC1CC(C)(C)C2)N1C(=O)c2ccccc2C1=O (stereo unspecified)	1.9%
CCC(CC)C(=O)NCCc1cc2c(C)ccc(C)c2[nH]c1=O	-2.4%
C=C(C)C1CC=C(CO)CC1 (stereo unspecified)	-2.1%
COC(=O)[C@@H]1C[C@@]2(O)[C@@H](O)[C@@H](O)[C@@H](O)C[C@H]2N1Cc1cc(F)ccc1F	-4.4%
CCC1=C2CC[C@H]3C(=O)N(C)C(=O)[C@H]3[C@H]2[C@@]2(Cc3ccccc3)C(=NCC3CC3)OC(=O)N2C1=O	-1.1%
COc1cc2cc[n+]3cc4c(OC)c(OC)ccc4cc3c2cc1OC	-2.6%
COc1cc(-c2cc(=O)c3c(O)c(OC)c(OC)c(OC)c3o2)cc(OC)c1OC	-0.6%
COc1cc2c(cc1O)C(Cc1ccc(O)cc1)N(C)CC2 (stereo unspecified)	-1.2%
NCCC(=O)N[C@H](Cc1cnc[nH]1)C(=O)O	-0.9%
O=c1c(O)c(-c2ccc(O)c(O)c2)oc2c(OC[C@@H]3O[C@@H](O)[C@@H](O)[C@H](O)[C@H]3O)c(O)cc(O)c12	-2.8%
CC(C)=C1C2CCC1C(C(=O)NCc1ccccc1)C2C(=O)O (stereo unspecified)	-2.1%
OCC1OC(n2cnc3c(Cl)ncnc32)C(O)C1O (stereo unspecified)	2.1%
O=C(OC1Cc2c(O)cc(O)cc2OC1c1cc(O)c(O)c(O)c1-c1c(C2Oc3cc(O)cc(O)c3CC2OC(=O)c2cc(O)c(O)c(O)c2)cc(O)c(O)c1O)c1cc(O)c(O)c(O)c1 (stereo unspecified)	-3.4%
COC(=O)/C(=C1\OC(=O)C(c2ccccc2)C1=O)c1ccccc1 (stereo unspecified)	4.6%
CCC(C)CCCCC(=O)NC(CCN)C(=O)NC(C(=O)NC(CCN)C(=O)NC1CCNC(=O)C(C(C)O)NC(=O)C(CCN)NC(=O)C(CCN)NC(=O)C(CC(C)C)NC(=O)C(Cc2ccccc2)NC(=O)C(CCN)NC1=O)C(C)O (stereo unspecified)	0.5%
COc1ccc2c(c1)OC1(C)CC2C(C(=O)c2ccccc2OC)C(=O)N1 (stereo unspecified)	-4.0%
CC(C)CC(=O)Nc1ccc2oc(-c3cccnc3)nc2c1	0.2%
O=S(=O)(Nc1ccc(Cl)cc1Cl)c1cc(Cl)ccc1Cl	-3.8%
COc1cc(/C=C/C(=O)/C=C(O)/C=C/c2ccc(O)c(OC)c2)ccc1O	12%
COc1cc2c(C=O)c3c4c(cc(OC)c(OC)c4c2cc1OC)CCN3C	17%
COc1ccc(N2CCN(S(=O)(=O)c3ccc(OC)cc3)CC2)cc1	1.4%
Cc1ccc2c(Cl)cc(Cl)c(O)c2n1	-0.5%
C=CCOC(=O)C1=C(C)NC(=O)NC1/C=C/c1ccccc1 (stereo unspecified)	1.6%
CCSc1ncnc2c(C#N)c3n(c12)CCCCC3	-1.4%
CCC(/C=C/C(C)C1CCC2C3CCC4=CC(=O)CC[C@@]4(C)C3CC[C@@]12C)C(C)C (stereo partly specified)	-0.2%
FC(F)(F)c1ccc(C2[C@H]3CN(Cc4ccc(-c5ccccc5)cc4)[C@H](c4ccccc4)C34CC2(c2ccccc2)C4)cc1 (stereo partly specified)	-3.1%
CC1(C)CC[C@]2(C(=O)O)CC[C@@]3(C)C(=CCC4[C@@]5(C)CCC(O)C(C)(C)C5CC[C@@]43C)C2C1 (stereo partly specified)	2.3%
CC(C)Cn1c(N)c(C(=O)COC(=O)c2cc(-c3ccccc3)nc3ccccc23)c(=O)n(C)c1=O	1.4%
(continued)
SMILES	AID923
C[C@@H]1OC(OC2CC[C@@]3(C)C(CC[C@@]4(C)C3CC=C3C5CC(C)(C)CC[C@]5(C(=O)OC5OCC(O)[C@@H](O)[C@@H]5OC5O[C@@H](C)[C@H](O[C@H]6OC(CO)C(O)C(O)C6O)C(O)C5O)C(O)C[C@@]34C)C2(C)C)C(O)C(O)[C@H]1OC1OCC(O)C(O)[C@H]1O (stereo partly specified)	1.4%
c1ccc2c(c1)CC(N1CCN(c3cccc4c3OCCO4)CC1)C2	-4.2%
COc1cc(O)c2c(=O)cc(C)oc2c1CC=C(C)C	-1.2%
COC(=O)CC1Oc2cc3oc4c5ccccc5oc(=O)c4c3cc2O1 (stereo unspecified)	1.6%
COc1cc2c(Cc3c4c5c(cc(OC)c(OC)c5c5c(OC)c(OC)ccc35)CCN4C)c3c4c(cc(OC)c(OC)c4c2cc1OC)CCN3C	16%
CC(CCC(=O)O)C1CCC2C3CC[C@H]4CC(O)CC[C@@]4(C)C3C=C[C@]12C (stereo partly specified)	-2.8%
CCCCn1c(CN2CCN(c3ccccc3)CC2)nc2c1c(=O)n(C)c(=O)n2C	-0.7%
C=Cc1c(C)/c2[n-]/c1=C\c1[n-]c(c(CC)c1C)/C=c1\[n-]c3c(c1C)C(=O)C(C(=O)[O-])C=3c1[n-]c(c(C)c1CCC(=O)[O-])\C=2.[Cu].[Na+].[Na+] (stereo unspecified)	5.0%
CC(N)CCCC(C)(C)O (stereo unspecified)	1.2%
CCC1=C2CC[C@H]3C(=O)N(c4ccccc4)C(=O)[C@H]3[C@H]2[C@@]2(C)C(=NCC(=O)OC)OC(=O)N2C1=O	0.8%
O=c1c(-c2ccc(O[C@@H]3O[C@H](CO)[C@@H](O)[C@H](O)[C@H]3O)cc2)coc2cc(O)cc(O)c12	-1.8%
COC(=O)c1cccc(C23CC4(C2)[C@H](CN(Cc2ccc(C(F)(F)F)cc2)[C@@H]4c2ccccc2)C3c2ccc(Cl)nc2)c1 (stereo partly specified)	1.9%
NC(Cc1cc(I)c(Oc2cc(I)c(O)c(I)c2)c(I)c1)C(=O)O (stereo unspecified)	-3.8%
